High-throughput results (PubChem BioAssay)
HIV Env fusion: inhibitors of HIV Env-mediated cell fusion. AID 651610. inhibition, % at 12.3 µM. HeLa-JRFL Env/CEM21 cell fusion, luciferase. hit rate 1.1% among 360,000;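 active = mean replicate inhibition score of at least 50 and every replicate individually at or above 50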;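 note: 0% = plate neutral controls and 100% = maraviroc near 300 nM; one replicate is shown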
Rce1 inh: inhibitors of yeast Ras-converting enzyme; yeast membranes, quenched prenylated peptide cleavage fluorescence; calls only; hit rate 0.27% among 290,000; AID 2563;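 active = fall in fluorescence gain of 50% or more versus controls, with final raw signal at or below 3038400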;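 note: plate controls were neutral control wells for no effect and wells lacking membranes for full effect; tested at 10 µM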
Target sequence (Q03530 whole entry, looked up): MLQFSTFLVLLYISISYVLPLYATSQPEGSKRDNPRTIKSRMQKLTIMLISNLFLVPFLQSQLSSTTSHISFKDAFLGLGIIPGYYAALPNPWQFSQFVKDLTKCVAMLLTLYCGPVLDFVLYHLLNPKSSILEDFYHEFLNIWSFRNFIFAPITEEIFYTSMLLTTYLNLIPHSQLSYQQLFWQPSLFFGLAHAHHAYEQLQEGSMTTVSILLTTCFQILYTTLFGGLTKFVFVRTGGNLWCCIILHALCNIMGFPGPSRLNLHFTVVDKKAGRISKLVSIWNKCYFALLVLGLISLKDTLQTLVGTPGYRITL
Yeast UUG start: modulators of start codon recognition fidelity in yeast. S. cerevisiae UUG-firefly luciferase reporter, luminescence/redox ratio. activity score, % at 18.7 µM. hit rate 0.13% among 350,000. AID 602363;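 active = replicate mean at a twofold rise or more, about +100% in these data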;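 note: firefly luciferase made from a UUG start codon reports start codon fidelity; reporter light over untreated wells divided by growth signal over untreated wells; some hits fall short of that in this replicate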
CSC inhib: cancer stem cell inhibition | inhibition, % at 7.5 µM | AID 2717 | cancer stem cell-like cells viability, luminescence | hit rate 1.1% among 300,000;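 active = mean at 75% or more and at least half the replicates too; tested in HMLE shEcad cells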;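 note: 0% = median of negative and 100% = median of positive control wells; the first replicate is given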
eIF4H inh: inhibitors of RNA binding by human eIF4H | hit rate 0.94% among 290,000 | inhibition, % at 35 µM | eIF4H fluorescence polarization binding assay | AID 2012;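 active = 50% or more with normal probe brightness, or confirmed in later tests; about a fifth of its hits are not listed in these tables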;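 note: calls also rest on retests at 20 µM and on dose response follow-up; 0% = protein and probe with vehicle and 100% = probe without protein; strong numbers were not always called active; many hits fall short of the cut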
MT1-MMP act inh: inhibitors of human MT1-MMP activation. GFP/RFP ratio change, % at 20 µM. hit rate 0.061% among 360,000. HT1080 RFP-PRO-GFP cells, GFP/RFP ratio fluorescence, overnight; percent of plate control window, DMSO zero. P50281;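 active = GFP/RFP ratio change of at least 30% with cell ATP level not reduced by more than half and red fluorescence within 50% of control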; note: strong numbers were not always called active
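Material: RFP-PRO-GFP reporter HT1080 cells. Dosing: single-point 20 µM compound, 1% DMSO. Controls: DMSO and RFP-L50D-GFP cell wells. Timing: cells overnight before dosing, compound overnight, 37 °C, 5% CO2. Measure: GFP/RFP fluorescence ratio.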
PABP polyA inh: PABP-poly(A) binding inhibition; PABP-poly(A) RNA binding, fluorescence polarization; inhibition, % at 35 µM; hit rate 1% among 290,000; AID 2014;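 active = 50% or more with normal probe brightness, or confirmed in later tests; about a fifth of its hits are not listed in these tables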;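 note: calls also rest on retests at 20 µM and on dose response follow-up; controls were probe without protein and protein plus probe with vehicle; some compounds called inactive have numbers as strong as hits; many hits fall short of the cut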
Target sequence (P11940 whole entry, looked up): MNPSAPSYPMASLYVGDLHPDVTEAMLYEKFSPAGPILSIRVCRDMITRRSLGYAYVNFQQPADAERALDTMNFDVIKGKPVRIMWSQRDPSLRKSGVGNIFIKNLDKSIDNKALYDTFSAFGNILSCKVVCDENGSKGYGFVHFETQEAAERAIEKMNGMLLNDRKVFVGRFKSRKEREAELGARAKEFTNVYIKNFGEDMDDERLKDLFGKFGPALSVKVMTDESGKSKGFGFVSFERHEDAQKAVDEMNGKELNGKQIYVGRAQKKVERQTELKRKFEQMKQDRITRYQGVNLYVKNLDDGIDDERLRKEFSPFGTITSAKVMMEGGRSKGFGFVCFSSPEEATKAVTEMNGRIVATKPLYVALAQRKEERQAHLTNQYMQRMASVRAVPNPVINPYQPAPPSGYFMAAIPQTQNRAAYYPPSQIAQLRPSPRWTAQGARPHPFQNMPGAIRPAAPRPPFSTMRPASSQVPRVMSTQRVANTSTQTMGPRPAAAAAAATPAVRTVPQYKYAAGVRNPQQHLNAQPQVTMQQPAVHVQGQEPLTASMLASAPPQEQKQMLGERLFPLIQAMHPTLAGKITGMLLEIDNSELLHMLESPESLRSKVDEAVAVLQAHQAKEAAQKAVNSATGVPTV
eIF4H inh retest: recorded beside eIF4H inh, whose call it bears; inhibition, %; compound at 20 µM; confirmation average;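 mean of two retest wells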
PABP polyA inh retest: further read-out of PABP polyA inh, marked with its call; inhibition, %; compound at 20 µM; confirmation repeats;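 mean of two retest wells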
MT1-MMP act inh RFP: further read-out of MT1-MMP act inh, marked with its call; RFP signal change, %; measured here: RFP expression control read;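 0 = vehicle wells; hits needed this value within 50% of zero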
* marks the source's active call; other numbers are inactive results; i = inactive; / = no result given.

SMILES	HIV Env fusion	Rce1 inh	Yeast UUG start	CSC inhib	eIF4H inh	MT1-MMP act inh	MT1-MMP act inh RFP	PABP polyA inh	others
CCn1cnc2sc(C(=O)Oc3ccc(Br)cc3)c(C)c2c1=O	6	i	/	2	-5	0	-1	-3
O=C(NCc1ccccc1Cl)C1CCC(=O)N(CC2CCCCC2)C1 (stereo unspecified)	/	/	-1	-7	-5	5	0	-6
CC1CCCC(NC(=O)COC(=O)/C=C/c2ccc3c(c2)OCO3)C1C (stereo unspecified)	-3	i	-5	-14	0	3	5	5
O=C(O)C1CCCCC1C(=O)Nc1ccc(S(=O)(=O)N2CCCCCC2)cc1 (stereo unspecified)	3	i	/	/	-3	-2	0	-11
Cc1ccc(C)c(NS(=O)(=O)c2ccc(-c3coc(C)n3)cc2)c1	4	i	-13	8	-7	-4	-8	10
CCC1CCC/C1=N\NC(=O)c1ccccc1Cl (stereo unspecified)	13	/	-28	3	/	3	7	/
O=C(N/N=C1\CCCc2ccccc21)c1ccccc1[N+](=O)[O-]	-17	i	-12	-1	2	-3	1	8
CCSc1n[nH]c(=S)s1	5	i	/	-11	-8	1	-3	-5
CC(=O)CCc1ccc(OCCCCN2CCC(Cc3ccccc3)CC2)cc1	-1	i	-7	33	13	1	0	-11
COc1ccc(NC(=S)N(CCC(C)C)C2CCN(C(C)C)CC2)cc1	9	i	-12	-5	-6	1	-1	0
COc1cccc(OCc2nnc(SCC(=O)N3c4ccccc4Sc4ccc(Cl)cc43)o2)c1	7	i	/	15	-8	1	-4	-6
COc1cccc(CN2CC(C(=O)NCCc3cn4cccnc4n3)CCC2=O)c1 (stereo unspecified)	-7	/	-8	/	/	3	1	/
COc1ccc(NC(=O)c2cccc(N3C(=O)C4C5C=CC(C5)C4C3=O)c2)cc1Cl (stereo unspecified)	7	i	-3	1	-6	1	-19	16
S=C(Nc1ccc(Cl)cc1Cl)N1CCCC1	-9	i	-30	-11	-13	-3	1	-5
CC1=C(C#N)C(c2ccccc2)C2=C(N1)c1ccccc1C2=O (stereo unspecified)	39	i	-13	23	10	-5	-6	3
COC(C(=O)Nc1ccnn1C1CCN(C(=O)c2ccc(C=O)cc2)CC1)c1ccccc1 (stereo unspecified)	-4	i	14	15	0	-4	-1	6
COc1ccc(CCN2CC(C(=O)NCC(=O)Nc3ccc(F)c(F)c3)CC2=O)cc1OC (stereo unspecified)	/	i	-5	2	/	-3	0	/
COc1ccc(CN2CCN(CCCc3ccccc3)C(CCO)C2)c(O)c1 (stereo unspecified)	3	i	-3	-15	-3	3	2	-3
O=C(CCN1C(=O)C2CC=CCC2C1=O)N1CCN(c2ccccn2)CC1 (stereo unspecified)	/	i	-17	3	1	2	8	5
CCc1ccc(Nc2n[n+](-c3ccccc3)c(-c3cc(OC)c(OC)cc3Br)s2)cc1	-2	i	-6	0	2	1	-1	3
Cc1nc(-c2ccc(Cl)cc2)sc1C1(C)CC(c2cccc([N+](=O)[O-])c2)=NO1 (stereo unspecified)	1	i	-3	8	4	-3	-2	10
Cc1ccc(-n2c(=O)[nH]c3cc(C(=O)NC4CCN(Cc5ccccc5)CC4)ccc3c2=O)cc1	11	i	-19	-9	-1	4	9	-5
O=S(=O)(NCC(c1ccc2c(c1)OCO2)N1CCOCC1)c1ccc(Br)cc1 (stereo unspecified)	/	i	-2	-12	/	1	5	/
CC(=O)NC(CC(C)C)C(=O)O (stereo unspecified)	-9	/	-9	/	/	-1	4	/
CCN1C(=O)CSC1=Nc1ccc(C(=O)OC)cc1	10	/	-11	/	/	3	3	/

At a glance, part of the list above.
SMILES	HIV Env fusion	Rce1 inh	Yeast UUG start	CSC inhib	eIF4H inh	MT1-MMP act inh	MT1-MMP act inh RFP	PABP polyA inh	others
CC(=O)NC(CC(C)C)C(=O)O (stereo unspecified)	-9	/	-9	/	/	-1	4	/
CCN1C(=O)CSC1=Nc1ccc(C(=O)OC)cc1	10	/	-11	/	/	3	3	/

Back to the main list, starting five compounds before the break.
SMILES	HIV Env fusion	Rce1 inh	Yeast UUG start	CSC inhib	eIF4H inh	MT1-MMP act inh	MT1-MMP act inh RFP	PABP polyA inh	others
Cc1nc(-c2ccc(Cl)cc2)sc1C1(C)CC(c2cccc([N+](=O)[O-])c2)=NO1 (stereo unspecified)	1	i	-3	8	4	-3	-2	10
Cc1ccc(-n2c(=O)[nH]c3cc(C(=O)NC4CCN(Cc5ccccc5)CC4)ccc3c2=O)cc1	11	i	-19	-9	-1	4	9	-5
O=S(=O)(NCC(c1ccc2c(c1)OCO2)N1CCOCC1)c1ccc(Br)cc1 (stereo unspecified)	/	i	-2	-12	/	1	5	/
CC(=O)NC(CC(C)C)C(=O)O (stereo unspecified)	-9	/	-9	/	/	-1	4	/
CCN1C(=O)CSC1=Nc1ccc(C(=O)OC)cc1	10	/	-11	/	/	3	3	/
Cc1ccc(S(=O)(=O)N(C)CC(=O)Nc2ccncc2)cc1	/	i	-16	10	-5	3	-2	-4
COc1ccc(S(=O)(=O)N2CCOCC2)cc1NC(=O)COc1ccc2c(C)cc(=O)oc2c1	/	/	-5	-2	/	-2	0	/
Cc1ccc(C)c(N2C(=O)c3ccc(C(=O)OCC(=O)c4c(N)n(C)c(=O)n(C)c4=O)cc3C2=O)c1	32	i	/	5	-2	2	6	17
COc1cc(/C=C2\SC(c3ccc(C)cc3)=NC2=O)cc(OC)c1O	/	i	/	4	-11	-4	3	-6
COC(=O)c1cc(S(=O)(=O)Nc2ccc(C)cn2)c[nH]1	-1	i	-7	-2	-6	5	6	3
COC(=O)c1ccc(CSc2cc(C)c3cc(C)cc(C)c3n2)o1	-6	i	/	8	0	8	-3	13
COc1cccc(CN2CCCC(C(=O)N3CCCCC3)C2)c1OC (stereo unspecified)	-169	i	-11	-4	0	5	4	11
O=C(Cn1c(=O)oc2ccccc21)NCCc1ccccc1	0	i	-20	-5	-5	2	2	-2
CCOc1ccccc1OCCC(=O)Nc1ccc(F)c(Cl)c1	13	i	-23	10	-6	-4	-4	-7
CCC/C(=N\NC(=O)c1ccccc1C)c1ccccc1	-23	i	/	0	4	4	4	8
C=CCn1c(=S)[nH]c2cc(C(=O)N3CCN(c4ccccc4OC)CC3)ccc2c1=O	7	/	/	-3	/	-6	1	/
CN(C)c1ccc(/C=N/NC(=O)C(=O)N2CCCCCC2)cc1	-2	/	-10	2	-7	-1	1	-2
CCN1CCN(C(=O)C(=O)c2cn(CC(=O)N3CCCC3)c3ccccc23)CC1	-20	i	-3	5	-7	-4	-2	-3
O=C(N/N=C/c1ccc([N+](=O)[O-])s1)C(O)c1ccccc1 (stereo unspecified)	25	i	/	3	37	-9	-13	-4
N#CC1=C(SCc2ccccc2)NC(=O)CC1c1ccccc1 (stereo unspecified)	/	i	-12	5	-2	-1	-2	4
COc1ccc(CCNC(=O)CSc2nnc(CNC(=O)c3ccco3)o2)cc1OC	-140	i	-12	-5	-14	0	3	4
CCC(C)Sc1ccc([C@@H]2[C@@H]3C(=O)N(C)C(=O)[C@@H]3[C@]3(C(=O)OC)CCCCN23)cc1 (stereo partly specified)	33	i	-10	21	/	13	-2	/
CCOC(=O)c1oc2c(C)c(O)ccc2c(=O)c1-c1nncn1-c1ccccc1	-18	i	-10	2	-5	2	0	-5
C#Cc1ccc([C@@H]2C=C(C(=O)N3CCOCC3)O[C@H](OCCCCO)C2)cc1	9	i	2	0	4	2	1	8
CCN(CC)c1ccc(/C=N/Nc2nn[nH]n2)cc1	0	i	/	-1	51*	1	0	9.2*	eIF4H inh retest=97*;PABP polyA inh retest=87*
O=C(Nc1ccc(Cl)c(Cl)c1)OCc1cncs1	/	i	/	6	-12	-1	-11	5
CCN(CC)c1ccc(S(=O)(=O)N(CC)CC)cc1NC(=O)C1CCCC1	48	i	/	-6	-1	-1	0	-5
O=C(CCn1cncn1)N1CCN(S(=O)(=O)c2ccc(Cl)cc2)CC1	1	i	-21	-4	-9	1	3	6
Cc1cc(C)cc(NC(=O)C2CCN(S(C)(=O)=O)CC2)c1	-20	i	-11	-7	-7	2	4	10
CCn1c(COc2cccc(C)c2C)nnc1SCC(=O)Nc1cc(C)on1	7	/	/	-11	-8	0	1	5

(further entries)
SMILES	HIV Env fusion	Rce1 inh	Yeast UUG start	CSC inhib	eIF4H inh	MT1-MMP act inh	MT1-MMP act inh RFP	PABP polyA inh	others
CN(Cc1ccc(F)cc1)C(=O)CNC(=O)C1CCCCC1	1	i	-18	-1	2	-2	1	-5
Cn1cc(C(=O)N/N=C/C2=C(N3CCOCC3)C(=C\c3ccccc3)/CC2)ccc1=O	43	i	/	-12	17	3	2	4
COc1ccc(C2=Nc3ccccc3NC(=O)C2N(C(=O)c2cnc(C)cn2)c2ccc(N3CCOCC3)cc2)cc1 (stereo unspecified)	-49	/	-17	/	/	1	2	/
O=C(CNCCC1=CCCCC1)Nc1ccc(N2CCCCCC2)cc1	-15	/	2	26	0	-51	-34	2
CCOC(=O)N1CCC2(CC1)NCCc1c2[nH]c2ccccc12	2	i	/	-3	-2	-1	-1	-13
COC(=O)c1ccccc1NC(=O)CN1CCN(C23CC4CC(CC(C4)C2)C3)CC1	/	i	-13	-13	-11	7	-3	9
COCCCNC(=O)c1nc2c(nnn2Cc2cc(C)ccc2C)c(=O)[nH]1	11	i	13	-2	-2	14	2	8
CC(Nc1nc(N2CCCCC2)nc2ccccc12)c1ccccc1 (stereo unspecified)	10	i	-1	/	-1	-1	-10	-1
CC(C)NC(=O)c1cc(C2CCCCN2C(=O)CCCc2ccccc2)on1 (stereo unspecified)	-17	/	-9	/	/	-2	-1	/
COc1ccccc1NC(=O)c1ccccc1NC(=O)c1cccs1	8	i	-16	-6	7	1	3	-13
CC(O)(c1ccc(F)c(F)c1)c1nc(-c2cccc(F)c2)cs1 (stereo unspecified)	22	/	-12	/	/	-1	-3	/
CSc1ccccc1C(=O)NCc1ccc(F)cc1	12	i	-11	-8	-9	2	4	-7
CCc1cc(C(c2ccccc2OC)N2CCOCC2)c(NC(=O)c2ccccc2)s1 (stereo unspecified)	/	i	-8	9	-4	-9	-7	-4
CC(C)c1nc(N2CCOCC2)c(C#N)c2c1CCCC2	43	i	-18	-15	-11	-7	-8	-7
Cc1ccc(-n2c(=S)sc3c(=O)n(-c4ccccc4F)c(SCC(=O)O)nc32)cc1C	-5	i	-13	-9	5	5	0	17
O=C(CN1C(=O)/C(=C/c2cccc(Cl)c2)SC1=S)NC1C=CS(=O)(=O)C1 (stereo unspecified)	-4	i	-25	13	-1	4	3	-4
CC/C(=N\NC(=O)c1ccoc1C)c1ccc(C)o1	/	i	/	-6	-2	0	-2	6
O=C(Nc1ccccc1)N1CCC(C(=O)N2CCN(c3ccccc3F)CC2)CC1	1	/	16	2	-1	0	-6	3
CCOC(=O)c1ccc(NC(=O)CC2NCCNC2=O)cc1 (stereo unspecified)	-17	i	-19	-1	-9	-1	0	2
Cc1cc(C)cc(NC(=O)Nc2ccc3ccccc3n2)c1	-22	i	-19	5	-3	3	1	-8
CN1C(=O)C(O)(CC(=O)c2ccc3c(c2)OCO3)c2ccccc21 (stereo unspecified)	/	i	2	5	2	5	5	6
CCCCOc1ccccc1C1NC(=O)NC(C)=C1C(=O)OCc1ccco1 (stereo unspecified)	/	i	-4	4	-2	-5	-7	2
COc1cc(OC)c(NC(C)C(=O)N2CCCC2)cc1Cl (stereo unspecified)	13	i	-12	-14	8	4	9	-9
CCOc1ccc(S(=O)(=O)N2CCN(Cc3ccccc3)CC2)cc1	8	i	-27	-4	-2	0	0	9
O=C(NCCCN1CCOCC1)c1cc2ccccc2oc1=O	-79	i	0	-7	-5	12	2	-6
CC(C)(NO)/C(=N/O)c1ccc(Br)cc1	i	i	-9	0	2	1	4	-6
O=C(NC(=S)N(Cc1ccccc1)Cc1ccccc1)c1ccccc1F	-60	i	-15	35	4	11	3	-3
COc1ccc(C(=O)NCCCNC(=O)c2ccccn2)cc1Br	/	i	-11	-4	4	-3	-1	2
